Assay outcomes deposited in PubChem by National Center for Advancing Translational Sciences (NCATS).
PK Bst = pyruvate kinase (B. stearothermophilus) modulation; partly purified Bacillus stearothermophilus pyruvate kinase, luminescence ATP production; ribose 5-phosphate activator present at AC10; Potency, µM; hit rate 1.2% among 51,000; AID 361; in the data active means potency below about 11 µM; inconclusive means mostly about 12 µM to 25 µM; inactive means weaker than that;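 the screen sought inhibitors and activators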;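 also: potency is read from the fitted curve at half-maximal effect; scaled between full activation by ribose 5 phosphate and full inhibition by luteolin; about four in five hits inhibit and the cells do not say which; series up to 57 µM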
TsaE inh = displaces an ADP probe from E. coli YjeE (TsaE); purified YjeE, fluorescence polarisation of a bound ADP probe; Potency, µM; hit rate 0.05% among 71,000; active = well fitted falling curve; inconclusive = weaker or top-dose-only fall, or a rising curve; inactive = flat or poorly fitted curve;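 also: top concentration of the series not given in the record; excess ADP was the control for the full effect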
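Fluorescence polarization of a BODIPY Texas Red–ADP probe (2 uM) bound to purified YjeE (10 uM) was read after 15 min room-temperature incubation with compounds. Loss of polarization marks inhibitors; ADP serves as titrated control.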
Active calls of the source: *. Only part of the results is shown, so the mix of outcomes need not match the whole.

The first 5 entries as a preview:
Results for N#Cc1c(NC(=O)CSc2nnc(-c3ccncc3)n2CC2CCCO2)sc2c1CCCC2 (configuration not stated) ?
PK Bst: >57; TsaE inh: inactive

How did CC(=O)N1C2CCCCC2S[C@H]2CCCCC21 (some centres not stated) do in these assays?
PK Bst: >57; TsaE inh: inactive

Results for NC(=O)c1ccsc1NC(=O)COc1ccccc1 ?
PK Bst: inactive; TsaE inh: inactive

What do the screens show for `Cc1nc(NC2=NCN(Cc3cccnc3)CN2)nc2c(C)cccc12`?
PK Bst: >57; TsaE inh: inactive

Results for Cn1nnnc1P(=O)(c1ccccc1)c1ccccc1 ?
PK Bst: >57; TsaE inh: inactive

The list itself, from the first entry:
Results for N#Cc1c(NC(=O)CSc2nnc(-c3ccncc3)n2CC2CCCO2)sc2c1CCCC2 (configuration not stated) ?
PK Bst: >57; TsaE inh: inactive

How did CC(=O)N1C2CCCCC2S[C@H]2CCCCC21 (some centres not stated) do in these assays?
PK Bst: >57; TsaE inh: inactive

Results for NC(=O)c1ccsc1NC(=O)COc1ccccc1 ?
PK Bst: inactive; TsaE inh: inactive

What do the screens show for `Cc1nc(NC2=NCN(Cc3cccnc3)CN2)nc2c(C)cccc12`?
PK Bst: >57; TsaE inh: inactive

Results for Cn1nnnc1P(=O)(c1ccccc1)c1ccccc1 ?
PK Bst: >57; TsaE inh: inactive

What do the screens show for `C[C@H](Br)C(=O)c1ccc2cc(Br)c3ccccc3c2c1`?
TsaE inh: inactive

Results for Cc1cccc(-n2ncc3c(NCc4cccs4)ncnc32)c1 ?
TsaE inh: inactive

Results for CCC(=O)Nc1ccc2nc(SCC(=O)N3CCCC3)sc2c1 ?
PK Bst: >57; TsaE inh: inactive

How did CCOc1ccc(OCc2ccc(C(=O)N3CCCC3)o2)cc1 do in these assays?
PK Bst: >57; TsaE inh: inactive

How did Cc1cc(C)n2cc(CSCc3ccco3)nc2n1 do in these assays?
PK Bst: >57; TsaE inh: inactive

Results for COC(=O)Cn1ncn2c(cc3oc(C)cc32)c1=O ?
TsaE inh: inactive

How did COc1cccc(N2CCN(Cc3nc(N)nc(Nc4ccccc4)n3)CC2)c1 do in these assays?
PK Bst: >57; TsaE inh: inactive

How did COc1ccc(-c2n[nH]c(C)c2-c2ccc(OC)c(OC)c2)c(O)c1 do in these assays?
PK Bst: >57; TsaE inh: inactive

How did Nc1c(S(=O)(=O)c2cccc(Cl)c2)c2nc3ccccc3nc2n1/N=C/c1ccc(O)c(O)c1 do in these assays?
PK Bst: inconclusive; TsaE inh: inactive

Results for COc1cc(NS(=O)(=O)c2ccc(F)cc2)c(OC)cc1NC(C)=O ?
TsaE inh: inactive

Arranged by formula weight (largest number first): part of the list above.
Results for N#Cc1c(NC(=O)CSc2nnc(-c3ccncc3)n2CC2CCCO2)sc2c1CCCC2 (configuration not stated) ?
PK Bst: >57; TsaE inh: inactive

What do the screens show for `Cc1nc(NC2=NCN(Cc3cccnc3)CN2)nc2c(C)cccc12`?
PK Bst: >57; TsaE inh: inactive

Results for Cc1cccc(-n2ncc3c(NCc4cccs4)ncnc32)c1 ?
TsaE inh: inactive

Later entries.
How did N#CC1=C(N)Oc2c(ccc3cccnc23)C1c1cccnc1 (configuration not stated) do in these assays?
PK Bst: inconclusive; TsaE inh: inactive

Results for Cc1cccc(C)c1NC(=O)C(c1ccccc1)N1CCN(C(=O)c2ccco2)CC1 (configuration not stated) ?
PK Bst: >57; TsaE inh: inactive

How did Cc1ccc(Cn2nnc3c(=O)n(CC(=O)OCc4ccccc4)cnc32)cc1 do in these assays?
PK Bst: >57; TsaE inh: inactive

Results for O=C(COc1ccc(S(=O)(=O)NC2CCCCC2)cc1)N1CCN(c2ccc(F)cc2)CC1 ?
TsaE inh: inactive

How did COc1ccccc1N1CCN(CCN(C(=O)C2CCCCC2)c2ccccn2)CC1 do in these assays?
TsaE inh: inactive

Results for CCOC(=O)Cn1nnc(-c2cccc(OC)c2)n1 ?
PK Bst: >11; TsaE inh: inactive

How did CC(C)N(Cc1nc(-c2ccccc2)no1)C(=O)CN1C(=O)c2ccccc2C1=O do in these assays?
PK Bst: >57; TsaE inh: inactive

How did CCOC(OCC)P(=O)(c1ccccc1)c1ccccc1 do in these assays?
TsaE inh: inactive

Results for O=C(c1cccs1)N1CCN(C(=O)c2ccco2)c2ccccc2C1 ?
PK Bst: >57; TsaE inh: inactive

How did CCCCCCS(=O)Cc1ccccc1 (configuration not stated) do in these assays?
TsaE inh: inactive

How did CCCNC(=O)c1c(C)cc(=O)oc1C do in these assays?
PK Bst: >57; TsaE inh: inactive

What do the screens show for `FB(F)F`?
TsaE inh: inactive

Results for CCC1CCCCN1C(=O)CSc1nnc(CNC(=O)COc2ccc(Cl)cc2)o1 (configuration not stated) ?
PK Bst: >57; TsaE inh: inactive

How did COc1cc(C2c3c(-c4ccccc4)n[nH]c3C(=O)N2c2ccccc2)ccc1O (configuration not stated) do in these assays?
PK Bst: >57; TsaE inh: inactive

Results for O=C1CC(c2cccs2)CC(O)=C1C=NCCN1CCNCC1 (configuration not stated) ?
TsaE inh: inactive

Results for O=c1c(-c2ccccc2)c(O)nc2ccccn12 ?
PK Bst: >57; TsaE inh: inactive

Results for Cc1nc(NCc2ccccc2)c2nc(-c3ccccc3)n(CCN(C)C)c2n1 ?
TsaE inh: inactive

What do the screens show for `Cn1ncc2nc[nH]c(=O)c21`?
PK Bst: >26

Results for CCNC(=O)N1c2ccc(OCC)cc2C(C)=CC1(C)C ?
PK Bst: >57; TsaE inh: inactive

What do the screens show for `COc1cccc(CNc2nc3ccccc3n2CCN2CCCCC2)c1`?
PK Bst: >57; TsaE inh: inactive

Results for Cc1cc(C)c(O)c(Cc2cccc(Cc3cc(C)cc(C)c3O)c2O)c1 ?
TsaE inh: inactive

Results for O=C(Nc1ccc(OC(F)(F)F)cc1)C1=NCCN1 ?
PK Bst: inactive; TsaE inh: inactive

Results for CC(=O)C1=C(C)NC(SCC(=O)c2ccccc2)=C(C#N)C1CC(C)C (configuration not stated) ?
PK Bst: >57; TsaE inh: inactive

How did CCCn1c(=O)c2[nH]c(-c3ccc(OCC(=O)NCCN)cc3)nc2n(CCC)c1=O do in these assays?
TsaE inh: inactive

Results for O=C(CN1CCN(c2ccccn2)CC1)NC(=O)NC1CCCCC1 ?
PK Bst: >57; TsaE inh: inactive

What do the screens show for `CCOCC(=O)Nc1cc(C(=O)OC)ccc1C(=O)OC`?
PK Bst: >57; TsaE inh: inactive

How did C[C@]12C=CC(=O)C=C1CC[C@@H]1[C@@H]2[C@@H](O)C[C@@]2(C)[C@H]1CC[C@]2(O)C(=O)COC(=O)CCC(=O)O do in these assays?
PK Bst: >26

Results for O=c1c2ccccc2nc(COc2ccccc2)n1/N=C/c1ccco1 ?
PK Bst: >57; TsaE inh: inactive

What do the screens show for `O=C(O)CCc1nc(-c2cccs2)no1`?
PK Bst: >57; TsaE inh: inactive

Results for COc1ccc(C(=O)CSc2nnc(-c3ccc(S(=O)(=O)N4CCOCC4)cc3)o2)cc1 ?
PK Bst: >57; TsaE inh: inactive

Quoted at random: 2 compounds from above
What do the screens show for `COc1cccc(CNc2nc3ccccc3n2CCN2CCCCC2)c1`?
PK Bst: >57; TsaE inh: inactive

Results for O=C(COc1ccc(S(=O)(=O)NC2CCCCC2)cc1)N1CCN(c2ccc(F)cc2)CC1 ?
TsaE inh: inactive

Next section
What do the screens show for `Cc1ccc(CNC(=O)C2C3C=CC4(CN(Cc5cccnc5)C(=O)C24)O3)cc1` (configuration not stated)?
PK Bst: >57; TsaE inh: inactive

What do the screens show for `Cc1cn2nc(N)c3ccccc3c2n1`?
PK Bst: 8.8*; TsaE inh: inactive

How did Cc1ccc(NC(=O)COC(=O)C2CCC(=O)N2)c(S(=O)(=O)N2CCOCC2)c1 (configuration not stated) do in these assays?
PK Bst: >57; TsaE inh: inactive

What do the screens show for `COc1ccccc1C(=O)Nc1ccc(-c2nnc(SCC(=O)O)n2C)cc1`?
PK Bst: >57; TsaE inh: inactive

How did CN(C)Cc1ccccc1-c1cc(-n2ccnc2)ncn1 do in these assays?
TsaE inh: inactive

How did Cc1noc(C)c1-c1nccc(N2CCNCC2)n1 do in these assays?
TsaE inh: inactive

Results for CCOc1ccccc1NC(=O)c1c(NC(=O)CNCc2ccco2)sc2c1CCC2 ?
TsaE inh: inactive

How did O=C(C1CCCCC1)N1CCC(c2nc3c(nnn3Cc3ccccc3Cl)c(=O)[nH]2)CC1 do in these assays?
PK Bst: >57; TsaE inh: inactive

How did Cc1ccc(NC(=O)C2CC=CCC2C(=O)N2CCCCC2)cc1 (configuration not stated) do in these assays?
PK Bst: >57; TsaE inh: inactive

How did O=c1c(-c2cccs2)nc2cnc(N3CCOCC3)nc2n1Cc1ccc(F)cc1 do in these assays?
TsaE inh: inactive

How did Cc1ccc2cc3c(NC(=O)CC(C)C)nn(C)c3nc2c1 do in these assays?
PK Bst: >57; TsaE inh: inactive

What do the screens show for `CN(C(=O)c1ccc(=O)[nH]c1)C1(C(=O)NC2CCCCC2)CCCCC1`?
PK Bst: >57; TsaE inh: inactive

How did CC(C)C(NS(=O)(=O)c1ccc2c(c1)oc(=O)n2C)C(=O)N1CCN(C2CCCCC2)CC1 (configuration not stated) do in these assays?
TsaE inh: inactive

What do the screens show for `CC(=O)OCCN1C(=O)c2cccnc2C1=O`?
PK Bst: >57; TsaE inh: inactive

How did COc1ccc(OCC(=O)Nc2ccccc2OC)cc1 do in these assays?
TsaE inh: inactive

Results for CCOn1c(=O)c(-c2ccc(OC)cc2)[n+]([O-])c2ccccc21 ?
PK Bst: >57; TsaE inh: inactive

What do the screens show for `C=CCc1c(C)[nH]c2ccc(C)cc2c1=O`?
TsaE inh: inactive

What do the screens show for `Cn1c(SCC(=O)Nc2cccc(O)c2)nnc1-c1ccc(S(=O)(=O)N2CCOCC2)cc1`?
PK Bst: >57; TsaE inh: inactive

How did O=C(CSc1nnc(-c2cccnc2)n1Cc1ccccc1)N1CCOCC1 do in these assays?
PK Bst: >57; TsaE inh: inactive

Results for CCOC(=O)C1CCCN(C(=O)CSc2nccn2C)C1 (configuration not stated) ?
PK Bst: >57; TsaE inh: inactive

Results for CCC1(c2ccccc2)NC(=O)N(CC(=O)Nc2cccc(C#N)c2)C1=O (configuration not stated) ?
PK Bst: >57; TsaE inh: inactive

Results for Cc1ccc(S(=O)(=O)NCCNC(=O)C2CCCNC2=O)cc1 (configuration not stated) ?
PK Bst: >57; TsaE inh: inactive

How did COc1ccc2c(c1)CCc1cc(C(=O)N3CCN(c4ccc(N5CCOCC5)nn4)CC3)sc1-2 do in these assays?
TsaE inh: inactive

Results for O=C(NCN1C(=O)C2C3C=CC(C3)C2C1=O)OC1CCCCC1 (configuration not stated) ?
PK Bst: >57; TsaE inh: inactive

What do the screens show for `Cc1ccc(S(=O)(=O)N2CCC(C(=O)N3CCC[C@H]3C(=O)NCc3ccccc3)CC2)cc1`?
PK Bst: >57; TsaE inh: inactive

Results for CN1[C@@H]2CC(OC(=O)[C@@H](CO)c3ccccc3)C[C@H]1[C@H]1O[C@H]12 (some centres not stated) ?
TsaE inh: inactive

What do the screens show for `CS(=O)(=O)N(CC(=O)NCCSC1CCCCC1)c1ccc2c(c1)OCO2`?
PK Bst: >57; TsaE inh: inactive

How did O=C(Nc1ccccc1)c1cccc(N2C(=O)CCC2=O)c1 do in these assays?
PK Bst: >57; TsaE inh: inactive

What do the screens show for `Cc1ccc2nc3c(cc(C#N)c(=O)n3CCN3CCOCC3)c(=O)n2c1`?
PK Bst: >57; TsaE inh: inactive

How did O=C1CC(N2CCOCC2)C(=O)N1CCN1C(=O)CC(N2CCOCC2)C1=O (configuration not stated) do in these assays?
PK Bst: >57; TsaE inh: inactive

What do the screens show for `Cc1ccc(S(=O)(=O)n2nc(OC(=O)c3ccco3)cc2N)cc1`?
PK Bst: >57; TsaE inh: inactive

Results for O=C1c2cccnc2-c2ncccc21 ?
PK Bst: >57; TsaE inh: inactive

What do the screens show for `COC(=O)CSc1ncc(C#N)c(N)n1`?
PK Bst: >57; TsaE inh: inactive

How did COc1ccc(C(=O)N2CCCc3ccccc32)cc1 do in these assays?
TsaE inh: inactive

What do the screens show for `CCC(c1nnnn1C(C)C)N1CCN(C2CCCC2)CC1` (configuration not stated)?
PK Bst: >57; TsaE inh: inactive

Results for CC(CP(=O)(O)O)NC(=O)Cc1ccccc1 (configuration not stated) ?
TsaE inh: inactive

What do the screens show for `CCc1nc(N2CCC(C)CC2)c2oc3ccccc3c2n1`?
TsaE inh: inactive

Results for O=C(O)c1cc(C(=O)O)c(-c2ccccc2)c(C(=O)O)c1 ?
TsaE inh: inactive

What do the screens show for `NC(=O)CSc1nnc(-c2ccoc2)o1`?
PK Bst: >57; TsaE inh: inactive

Results for COc1ccc(F)cc1S(=O)(=O)n1cc(C)nc1-c1ccccc1 ?
PK Bst: >57; TsaE inh: inactive

How did Cc1ccc(Cn2c3ccccc3c3cn[nH]c(=O)c32)cc1 do in these assays?
TsaE inh: inconclusive

How did O=[N+]([O-])c1cc(Cc2cc([N+](=O)[O-])c3cccnc3c2O)c(O)c2ncccc12 do in these assays?
TsaE inh: inactive

Results for Cc1c(C(=O)COC(C)(C)C)[nH]c2ccccc12 ?
TsaE inh: inactive

How did O=C(Nc1cccc(F)c1)N1CCCC2(CCN(C(=O)c3cccc(F)c3)CC2)C1 do in these assays?
TsaE inh: inactive

How did COc1ccccc1CNC(=O)CCNC(=O)Cn1ccc2ccccc2c1=O do in these assays?
PK Bst: >57; TsaE inh: inactive

What do the screens show for `O=C(O)CSc1ccn(Cc2ccccc2)c1`?
TsaE inh: inactive

Results for CC1CCN(S(=O)(=O)Cc2ccccc2Cl)CC1 ?
PK Bst: >57; TsaE inh: inactive

Results for Clc1ccc(CSc2ncn[nH]2)cc1 ?
TsaE inh: inactive
